FGF22 binding: FGF22 (human) thermal shift binding | Q9HCT0 | recombinant FGF22 thermal shift, SYPRO orange fluorescence; percent of sucrose octasulfate shift, DMSO zero | calls only at 9.99 µM | 340,000 compounds, 1.5% hits | AID 651658;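 active = melting point raised past a set limit in the mean and every replicate; three in four hits are not shown here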
Target sequence (Q9HCT0 whole entry, looked up): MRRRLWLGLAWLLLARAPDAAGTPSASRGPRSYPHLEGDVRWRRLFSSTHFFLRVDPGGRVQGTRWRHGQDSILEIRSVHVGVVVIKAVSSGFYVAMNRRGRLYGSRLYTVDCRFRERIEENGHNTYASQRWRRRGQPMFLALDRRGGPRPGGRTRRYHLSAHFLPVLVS
HNF4A DNA FP: change in binding of human HNF4 alpha to DNA. AID 1224865. 360,000 compounds, 0.3% hits. HNF4a-FITC DNA binding, fluorescence polarization, 1 h. activity change, % at 10 µM; in the data active = activity change above about 30%, passing the limit was not always enough;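 also: controls were the assay level and a saturating level of protein; the project sought stronger binding though the title names inhibitors; some compounds called inactive have numbers as strong as hits; positive values seem to mean higher polarization but the record does not say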
Target sequence (P41235 whole entry, looked up): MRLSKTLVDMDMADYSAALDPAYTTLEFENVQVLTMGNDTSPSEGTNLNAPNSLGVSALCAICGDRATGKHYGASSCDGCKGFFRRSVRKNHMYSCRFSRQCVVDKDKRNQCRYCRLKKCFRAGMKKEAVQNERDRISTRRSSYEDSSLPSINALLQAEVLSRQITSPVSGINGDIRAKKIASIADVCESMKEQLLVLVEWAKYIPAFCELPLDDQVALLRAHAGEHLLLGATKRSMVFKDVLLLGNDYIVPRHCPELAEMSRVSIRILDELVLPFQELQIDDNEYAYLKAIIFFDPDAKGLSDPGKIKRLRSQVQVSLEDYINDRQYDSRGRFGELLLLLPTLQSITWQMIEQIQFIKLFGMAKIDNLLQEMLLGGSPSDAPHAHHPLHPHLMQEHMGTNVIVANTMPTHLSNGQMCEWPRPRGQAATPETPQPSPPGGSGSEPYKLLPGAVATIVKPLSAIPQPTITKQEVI
Active calls of the source: *; i = inactive; & = joins results of further samples. These rows are one share of the data; count on the stated rates, not on these rows.

Preview:
Values run as follows: FGF22 binding	HNF4A DNA FP
Oc1cccc(-c2csc(C(O)(c3ccccc3)C(F)(F)F)n2)c1 (stereo unspecified)
  i	4.0
CC1(C(=O)Nc2cnc3ccccc3c2)CCN1Cc1ccccc1OC(F)F (stereo unspecified)
  i	-3.2
COC(=O)C1=CN(c2ccc(OC)cc2OC)C(N)=C(C#N)C1c1ccc(OC)cc1 (stereo unspecified)
  i	2.1

This part in full (from the top)
Values run as follows: FGF22 binding	HNF4A DNA FP
Oc1cccc(-c2csc(C(O)(c3ccccc3)C(F)(F)F)n2)c1 (stereo unspecified)
  i	4.0
CC1(C(=O)Nc2cnc3ccccc3c2)CCN1Cc1ccccc1OC(F)F (stereo unspecified)
  i	-3.2
COC(=O)C1=CN(c2ccc(OC)cc2OC)C(N)=C(C#N)C1c1ccc(OC)cc1 (stereo unspecified)
  i	2.1
Cc1cccc(C)c1NC(=O)C1c2ccccc2OCC(=O)N1Cc1ccccc1 (stereo unspecified)
  i	1.9
CN(Cc1ccccc1)C(=O)[C@@H]1CCCN1C(=O)[C@@H]1CCCN1C(=O)c1cccs1
  i	-0.8
Nc1cccc(OCCCCCOc2cccc(N)c2)c1
  i	-0.6
COCCCN1C(=O)C(CC(=O)NC2CC2)CC(C(=O)N(C(C)C)C(C)C)=C1C (stereo unspecified)
  i	-4.9
COc1cc(NC(=O)C2CCN(S(=O)(=O)c3cccs3)CC2)c(C(=O)O)cc1OC
  i	-0.4
Cc1ccc(Cl)cc1-c1cc(C(=O)Nc2ccc(F)cc2)[nH]n1
  i	-1.3
O=C(O)c1cccc2c1C(=O)c1cc([N+](=O)[O-])cc([N+](=O)[O-])c1-2
  i	-1.0
O=C(NC1CCN(Cc2ccccc2)CC1)c1[nH]c(C(F)(F)F)nc1-c1ccccc1
  i	3.2&3.9
CC(=O)c1cccc(NC(=O)C2CCCN2S(=O)(=O)c2ccccc2C(F)(F)F)c1 (stereo unspecified)
  i	-0.3
CCCOc1ccc(F)cc1-c1cc(C(=O)NCc2ccccc2OC)[nH]n1
  i	-0.7
CC1(C(=O)Nc2ccc3ccccc3c2)CCC(=O)N1CC(F)(F)F (stereo unspecified)
  i	-2.5
CC1(C(=O)Nc2cccc3ccccc23)CCN1C(=O)Cc1ccc(Cl)cc1Cl (stereo unspecified)
  i	0.1
COc1ccc(-c2ccc(C(=O)Nc3cccc(Oc4ccccc4)c3)c3occc23)c(C)c1
  i	2.6
CNC(=O)OCc1ncn(-c2ccccc2)c1COC(=O)NC
  i	-3.4
CNc1ncnc2c1ncn2[C@H]1CN(Cc2cccs2)C[C@@H](CO)O1
  i	2.9
Nc1ccn([C@@H]2O[C@H](CNCc3cc(Br)ccc3OCc3ccccc3)[C@@H](O)[C@H]2O)c(=O)n1
  i	5.2
Nc1ncnc2c1ncn2[C@@H]1O[C@H](C(=O)Nc2ccc(C(=O)N3CCCCC3)cc2)[C@@H](O)[C@H]1O
  i	0.8
Cc1ccccc1NC(=O)CSc1nccn1Cc1ccco1
  i	0.8
COc1ccccc1-c1ccc2c(c1)C(C)(Cc1ccc(Cl)c(Cl)c1)C(=O)N2 (stereo unspecified)
  i	4.2
Cc1n[nH]c2ccc(Br)cc2c1=O
  i	0.1
COc1cccc(-c2cc(NC=O)c3ncc(-c4ccc(C(C)=O)cc4)n3c2)c1
  i	5.9
COc1cc(C(O)c2nc(-c3ccc(F)cc3OC)cs2)ccc1F (stereo unspecified)
  i	1.2
O=C(NC1CCCC1)C(c1ccccc1)n1c(-c2ccc3c(c2)CCO3)nc2ccccc21 (stereo unspecified)
  i	4.1
COC(=O)C(C(=O)OC)c1cc2c(cc1CNS(=O)(=O)c1ccc(C)cc1)OCO2
  i	4.7
COc1ccccc1CNc1nc2cc(-c3ccsc3)sc2c(=O)n1C
  i	-1.9
CCOc1ccc(-c2cnc3cccnn23)cc1
  i	-1.7
CCNC(=O)C1(C)CCN(Cc2csc(-c3ccccc3)n2)C1 (stereo unspecified)
  i	-3.5
CCOC(=O)C1=CCCN(S(=O)(=O)c2ccc(C)cc2)C1
  i	-1.9
Cc1ccc(C(=O)Nc2nc(C(N)Cc3ccc(C(F)(F)F)cc3)cs2)cc1 (stereo unspecified)
  i	5.1
OC(c1cccc(Cl)c1)c1nc(-c2ccccc2)cs1 (stereo unspecified)
  i	1.9
Nc1ncnc2c1ncn2[C@@H]1O[C@H](C(=O)N[C@H]2c3ccccc3C[C@H]2OC=O)[C@@H](O)[C@H]1O
  i	2.6
COc1ccc(-c2ccc(C(=O)N3CCOCC3)c3occc23)c(C)c1
  i	-4.5
CC1(C(=O)NS(=O)(=O)c2ccc(C#N)cc2)CCN1C(=O)Cc1ccsc1 (stereo unspecified)
  i	0.2
CCc1nc2ccc(C(=O)Nc3ccc(C(=O)N(C)C)cc3)cn2c1N(C)CCCc1ccccc1
  i	5.9
O=C(c1ccco1)N1CCN(C2CN(C3CCCCC3)S(=O)(=O)C2)CC1 (stereo unspecified)
  i	2.0
O=C(NCc1ccc(F)cc1F)[C@@H]1CCCN1C(=O)[C@@H]1CCCN1C(=O)c1ccc(Cl)cc1
  i	-0.7
O=C(COc1ccc(F)c(Cl)c1)NC(=O)NC1CCCC1
  i	5.0
CCn1c(C)nnc1SCC(=O)Nc1ccc(OC)cc1
  i	3.7
CN(CCc1ccccc1)C(C(=O)Nc1ccc2c(c1)OCCO2)c1ccnc2ccccc12 (stereo unspecified)
  i	-3.8
Cc1ccc(S(=O)(=O)N2CCC(=O)N([C@H](COCc3cccc(Cl)c3)Cc3ccccc3)CC2)cc1
  i	0.8
COc1ccc(Cc2c(-c3ccc(OC)c(OC)c3)nc3c(C)cc(Br)cn23)c(C)c1
  i	12.9
CC(C)(C)c1ccc(S(=O)(=O)NC(=O)C2(C)CCN2C(=O)Cc2ccccc2Cl)cc1 (stereo unspecified)
  i	-0.3
Cc1ccc(S(=O)(=O)N2C[C@H]3C(=O)C[C@@H](c4ccccc4)N(S(=O)(=O)c4ccccc4)[C@H]3C[C@H]2c2ccccc2)cc1
  i	-0.1
COc1ccc(NC(=O)c2sc3nc(N4CCOCC4)c4c(c3c2N)CCCC4)cc1
  i	1.1
Cc1cc2nc(-c3cccc(Br)c3)c(Cc3cccc(Cl)c3)n2c(C)c1Br
  i	5.6
COc1cccc(NC(=O)CN(C)C(=O)c2cc(Cl)nc3ccccc23)c1
  i	-1.0
CC1=C(C(=O)N2CCOCC2)CC(CC(=O)NCc2cccc3ccccc23)C(=O)N1CCC1=CCCCC1 (stereo unspecified)
  i	1.7
COc1cc(NC(=O)Nc2nc(C(N)C3CCCCC3)cs2)cc(OC)c1OC (stereo unspecified)
  i	-3.3
CC1(C(=O)O)CCN1C(=O)c1cccc(OC(F)(F)F)c1 (stereo unspecified)
  i	3.7
O=C(Nc1ccc(F)cc1)C(CCc1ccccc1)N1CCN(c2ccncc2)CC1 (stereo unspecified)
  i	1.3
CCCOc1cccn2c(N(C)C(=O)c3ccccc3F)c(CC)nc12
  i	-1.8
CCCc1nc2ccc(C)cn2c1Cc1ccccc1OC
  i	2.7
CCC(C)CN1C(=O)CSCC1(C)C(=O)NC(C)C (stereo unspecified)
  i	0.6
Fc1cccc(Cl)c1C1SCc2nc3ccccc3n21 (stereo unspecified)
  i	-0.5
CCc1nc2c(OCc3ccc(Cl)cc3Cl)cccn2c1N(C=O)Cc1ccc(OC)cc1
  i	2.6
COc1ccc(CNC(=O)C2(C)Cc3c(-c4ccc(N(C)C)cc4)ccnc3O2)cc1OC (stereo unspecified)
  i	-36.7
O=C(CSc1nnc(-c2ccccc2F)n1C1CC1)N1CCCC1
  i	-2.3

A section from the list above:
Values run as follows: FGF22 binding	HNF4A DNA FP
Oc1cccc(-c2csc(C(O)(c3ccccc3)C(F)(F)F)n2)c1 (stereo unspecified)
  i	4.0
CC1(C(=O)Nc2cnc3ccccc3c2)CCN1Cc1ccccc1OC(F)F (stereo unspecified)
  i	-3.2
COC(=O)C1=CN(c2ccc(OC)cc2OC)C(N)=C(C#N)C1c1ccc(OC)cc1 (stereo unspecified)
  i	2.1

3 entries already listed, arranged by their value in HNF4A DNA FP, ascending:
structure | FGF22 binding | HNF4A DNA FP
O=C(CSc1nnc(-c2ccccc2F)n1C1CC1)N1CCCC1 | i | -2.3
Cc1ccc(S(=O)(=O)N2C[C@H]3C(=O)C[C@@H](c4ccccc4)N(S(=O)(=O)c4ccccc4)[C@H]3C[C@H]2c2ccccc2)cc1 | i | -0.1
CC1(C(=O)NS(=O)(=O)c2ccc(C#N)cc2)CCN1C(=O)Cc1ccsc1 (stereo unspecified) | i | 0.2

Following part
SMILES | FGF22 binding | HNF4A DNA FP
O=C(NCc1cccnc1)c1cc(C2CCCN(C(=O)c3cccs3)C2)on1 (stereo unspecified) | i | -2.9
COc1ccc(C2CCCCCN2C(=O)C2CCN(S(=O)(=O)c3ccc(C)cc3)CC2)cc1 (stereo unspecified) | i | 1.3
O=C(CCc1nc2ccccc2c(=O)[nH]1)Nc1ccccc1N1CCCCC1 | i | 3.9
CC1=C(C(=O)N2CCCCCC2)CC(CC(=O)NCCCN(C)C)C(=O)N1Cc1ccc(C(C)(C)C)cc1 (stereo unspecified) | i | 0.9
C#Cc1ccc(NC(=O)C2(C)CCN2C(=O)CC(c2ccccc2)c2ccccc2)cc1 (stereo unspecified) | i | 1.3
CCCNC(=O)C1(C)CCCN(C(=O)c2sccc2C)C1 (stereo unspecified) | i | -0.8
CCOC(=O)C1(C)CCN1C(=O)c1ccoc1 (stereo unspecified) | i | 3.0
COc1ccc(CN2C(=O)CSCC2(C)C(=O)NC(C)C)cc1 (stereo unspecified) | i | -3.5
CCCS(=O)(=O)NC(=O)C1(C)CCN(C(=O)c2ccc(F)c(C)c2)C1 (stereo unspecified) | i | -4.3
NC(=O)C1CCN(C(=O)c2ccc(Cl)c(NC(=O)c3cccs3)c2)CC1 | i | -0.3
COc1ccccc1S(=O)(=O)N(C)C[C@H]1OCc2cnnn2CCCC(=O)N([C@@H](C)CO)C[C@H]1C | i | 0.5
CC(C)C(=O)N1CCC1(C)C(=O)Nc1cc(-c2ccccc2)nn1C (stereo unspecified) | i | 0.3
COc1cccc(CNC(=O)[C@@H]2CCCN2C(=O)[C@@H]2CCCN2C(=O)c2cccc(OC)c2)c1 | i | 1.8
COC(=O)[C@]12CCCCC=C1N(Cc1cccc3ccccc13)C(=O)[C@H](CC(=O)N1CCCC1)C2 | i | -0.1
COc1ccc(CNCCCn2cnc3c(SC)ncnc32)cc1 | i | -6.3
COc1ccc(C2=Nc3ccccc3N(C(=O)c3cnccn3)C2C(=O)NC2CCCC2)cc1 (stereo unspecified) | i | 0.1
Cc1ccc2c(c1)=N/C(=N\c1[nH]c(O)c3ccccc13)N=2 | i | -2.6
N=C(N)n1ncc2c1CCCC2=O | i | 9.8
CCN1C(=O)[C@H]2[C@@H](c3ccc(C)cc3)N[C@]3(CCCN(Cc4ccc(F)cc4)C3=O)[C@H]2C1=O | i | -2.2
CCCS(=O)(=O)NC(=O)C1(C)CCCN(C(=O)C2(c3ccc(Cl)cc3)CCCC2)C1 (stereo unspecified) | i | 1.7
CCC(c1nnnn1Cc1ccccc1)N1CCN(C/C=C/c2ccccc2)CC1 (stereo unspecified) | i | 0.5
O=C1CCCC[C@@H](CO)[C@H](O)C[C@H](c2ccccc2)O1 | i | 2.8
CC(C)C1C(=O)N(Cc2cn(Cc3ccco3)nn2)CCS(=O)(=O)N1Cc1ccc(-c2cccc(N(C)C)c2)cc1 (stereo unspecified) | i | 5.9
NCc1csc(Nc2ccc(C(=O)c3ccccc3)cc2)n1 | i | -4.4
COc1ccccc1-c1noc2c1C(=O)N(Cc1cn(-c3ccccc3)nn1)CC2 | i | 4.2
COc1ccc(C2=Nc3ccccc3N(C(=O)c3ccc4c(c3)OCO4)C2C(=O)Nc2c(C)cccc2C)cc1 (stereo unspecified) | i | 8.8
CCCCCC(=O)N1C[C@H](n2cc(-c3ccc(F)cc3)nn2)[C@@H](O)C[C@@H]1c1ccc(C)cc1 | i | -6.5
COc1cc(OC)cc(C2=Cc3ccccc3C(CC(C)=O)N2c2ccc(-c3cncnc3)cc2)c1 (stereo unspecified) | i | -0.8
COc1ccc(NC(=O)C2(C)Cc3c(-c4cccc(NC(C)=O)c4)ccnc3O2)cn1 (stereo unspecified) | i | -8.9
CNc1ncnc2c1ncn2[C@H]1CN(C2CCCC2)C[C@@H](CO)O1 | i | -4.4
COc1ccc(C(=O)CC(C#N)c2ccc3c(c2)OCO3)cc1OC (stereo unspecified) | i | 0.8
CC1CCC(NC(=O)C(NS(=O)(=O)c2ccc(Br)cc2)C(C)C)CC1 (stereo unspecified) | i | 0.5
COC(=O)c1ccccc1COc1cccn2c(N(C)CC3CC3)c(C)nc12 | i | -4.0
Cc1ccc(C(=O)NC(C)C(c2cccs2)N2CCOCC2)cc1C (stereo unspecified) | i | 0.6
COc1cccc(/C=C/C(=O)OCC(=O)Nc2ccc3c(c2)OCO3)c1 | i | 1.5
CCOC(=O)[C@]12CCCC=C1N(CCC1=CCCCC1)C(=O)[C@H](CC(=O)NCc1cccc3ccccc13)C2 | i | -3.2
COc1cc(NC(=O)COc2ccc([N+](=O)[O-])cc2)ccc1NC(=O)c1ccco1 | i | 5.3
C[C@H]1CN([C@@H](C)CO)C(=O)CCCn2cc(nn2)CO[C@@H]1CN(C)C(=O)c1ccncc1 | i | 5.2
CC(C)C[C@@H]1Cc2[nH][nH]c(=O)c2[C@H](CCc2ccccc2)O1 | i | -1.7
O=C(NC1CCCCC1)C(CCc1ccccc1)N1CCc2ccccc2C1 (stereo unspecified) | i | 5.3
CC(C)C(=O)N1CCC1(C)C(=O)Nc1ccc(-n2cccc2)cc1 (stereo unspecified) | i | 1.6
COc1cc2c(cc1N)-c1ccc(N)cc1C2=O | i | 5.5

Screens: PubChem, several laboratories
